Screens from PubChem BioAssay.
KCNQ2 inh = KCNQ2 potassium channel inhibitors, primary screen, cell-based, CHO-K1, FluxOR thallium flux, B-score (AID 2156) | 20 min; active compounds read low; only compounds with negative scores are shown here; some inactives read as strong as hits | B-score at 10 µM | 310,000 tested, 1.1% active;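 active = fluorescence ratio B-score at most minus 3 library SDs, with starting brightness B-score within 2 library SDs, cut at about -5.5 in these data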
Target sequence (O88943 whole entry, looked up): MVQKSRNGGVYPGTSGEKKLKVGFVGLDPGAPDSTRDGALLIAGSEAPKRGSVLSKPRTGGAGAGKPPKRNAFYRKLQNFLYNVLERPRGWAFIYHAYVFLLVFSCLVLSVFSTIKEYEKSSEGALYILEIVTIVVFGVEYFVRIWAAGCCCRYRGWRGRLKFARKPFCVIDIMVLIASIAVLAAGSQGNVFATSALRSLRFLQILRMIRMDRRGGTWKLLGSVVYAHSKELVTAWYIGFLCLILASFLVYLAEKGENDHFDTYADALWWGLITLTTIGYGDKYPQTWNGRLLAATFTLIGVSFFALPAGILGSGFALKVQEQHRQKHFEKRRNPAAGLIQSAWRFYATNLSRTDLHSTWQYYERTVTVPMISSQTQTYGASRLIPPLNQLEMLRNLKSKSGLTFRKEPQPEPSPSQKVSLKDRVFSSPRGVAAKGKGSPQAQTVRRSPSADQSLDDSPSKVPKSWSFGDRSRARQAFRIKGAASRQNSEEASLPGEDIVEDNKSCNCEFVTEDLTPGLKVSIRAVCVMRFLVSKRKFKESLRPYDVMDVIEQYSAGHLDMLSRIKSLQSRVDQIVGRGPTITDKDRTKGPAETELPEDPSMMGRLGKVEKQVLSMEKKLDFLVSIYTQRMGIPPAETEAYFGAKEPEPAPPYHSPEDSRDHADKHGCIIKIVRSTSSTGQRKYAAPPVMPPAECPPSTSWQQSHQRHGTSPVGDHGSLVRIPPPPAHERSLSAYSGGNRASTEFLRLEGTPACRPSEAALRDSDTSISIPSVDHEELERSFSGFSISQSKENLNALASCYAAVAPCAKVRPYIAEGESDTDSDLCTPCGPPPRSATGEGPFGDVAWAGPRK
KCNQ2 inh baseline = also measured in KCNQ2 inh; calls as there; B-score; measured here: initial fluorescence intensity artifact check;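 brightness before thallium and not channel activity; 0 = typical well and far values either way flag optical interference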
* hit, by the source's call; i = inactive. These rows are one share of the data; count on the stated rates, not on these rows.

SMILES	KCNQ2 inh	KCNQ2 inh baseline
Cc1ccc(C(=O)Nc2nnc(S(=O)(=O)Nc3ccccc3C)s2)cc1C	i	-1.5
Cc1c(NC(=O)Nc2cccc(C#N)c2)c(=O)n(-c2ccccc2)n1C	i	-0.43
CC(=O)NCCNC(=O)CNC(=O)c1ccc(Cl)cc1	i	-1.7
COc1ccccc1CN1CCN(C(c2ccccc2)c2ccccc2)CC1	i	0.62
Cc1nnc(NC(=O)C(C)Sc2nnc(-c3ccco3)n2C)s1 (stereo not given)	i	0.01
O=C(COC(=O)c1c2c(nc3ccccc13)CCCCC2)c1ccc(Cl)s1	i	-0.12
Cc1cccc(C)c1NC(=O)C1CCCNC1 (stereo not given)	i	-0.07
CC(C)OCCCn1c(=O)c2ccccc2n2c(CCC(=O)NC3CCN(Cc4ccccc4)CC3)nnc12	-6*	-1.2*
O=C1CC(c2cccnc2)c2cc3c(cc2N1)OCCO3 (stereo not given)	i	-0.32
CONc1nc2nonc2nc1NOC	i	0.96

Single values from the results shown.
Entry for Cc1cccc(C)c1NC(=O)C1CCCNC1 (stereo not given) under KCNQ2 inh baseline: -0.07
Entry for Cc1ccc(C(=O)Nc2nnc(S(=O)(=O)Nc3ccccc3C)s2)cc1C under KCNQ2 inh baseline: -1.5

Rewritten as labelled records: two of the compounds above
Cc1ccc(C(=O)Nc2nnc(S(=O)(=O)Nc3ccccc3C)s2)cc1C
  KCNQ2 inh: i	KCNQ2 inh baseline: -1.5

Cc1c(NC(=O)Nc2cccc(C#N)c2)c(=O)n(-c2ccccc2)n1C
  KCNQ2 inh: i	KCNQ2 inh baseline: -0.43

Additional entries follow:
SMILES	KCNQ2 inh	KCNQ2 inh baseline
Cc1ccsc1CN(C)CC(=O)Nc1ccc([N+](=O)[O-])cc1Cl	i	-0.68
CCOc1ncccc1C(=O)NCCCSc1ccccc1	i	-1.1
COc1ccc(S(=O)(=O)N2CCN(Cc3ccc(Cl)cc3)CC2)cc1	i	0.44
CC1CCc2sc3c(c2C1)c1ncnn1c(=O)n3CC(=O)c1ccc(Br)cc1 (stereo not given)	i	-1.8
O=C(Nc1ccc(F)cc1F)c1sccc1SCc1cccc(C(F)(F)F)c1	-5.9*	-0.38*
C=CCn1c(SCc2ccc(F)cc2)nc2c1c(=O)[nH]c(=O)n2C	i	1.7
OCCNCCNCc1ccccc1OCc1ccccc1	i	-0.96
Cc1cc(C(=O)Nc2ccc(F)c(Cl)c2)on1	i	-2
C=CCN1C(=O)NC2(O)C(=O)c3ccccc3C12O (stereo not given)	i	1.1
COc1ccc(CCNC(=O)CCC(=O)Nc2ccccc2[N+](=O)[O-])cc1OC	i	1.3
CCOc1ccc(NC(=O)CSCC(=O)O)cc1	i	0.65
Cc1ccc(N(C)S(=O)(=O)c2ccc(-c3cnc(C4CC4)o3)cc2)cc1	-9.5*	-0.09*
CCC(=O)Nc1cc(NC(=O)CSc2nnc(C(C)C)n2CC)ccc1C	i	2.3
Cc1cc(Cl)ccc1NC(=O)Cn1cncn1	i	0.05
CCc1ccc(C(=O)Cn2ncc(Cl)c(Cl)c2=O)cc1	i	0.01
Cc1ccc(SCC(=O)N(Cc2nc(-c3ccccc3)no2)C(C)C)cc1	i	2.1
Cc1ccc(S(=O)(=O)N(C)CC(=O)OCC(=O)NC(=O)NC(C)C)cc1	i	0.14
CC(C)CN(C(=O)COc1ccc(Br)cc1C=O)C1CCS(=O)(=O)C1 (stereo not given)	i	0.53
COCCNC(=O)CSc1ccccc1C(=O)NC1CCCc2ccccc21 (stereo not given)	i	-0.66
O=C(NCc1cccs1)C1CC(=O)N(c2ccc(Cl)cc2)C1 (stereo not given)	i	-3
O=C(CSc1nnc(-c2cnccn2)n1Cc1ccco1)c1ccc(Cl)c(Cl)c1	i	-0.01
CN1CCN(C(CNS(=O)(=O)c2ccc(F)cc2)c2cccnc2)CC1 (stereo not given)	i	-0.57
COc1ccc(NC(=O)Oc2cc(C)ccc2C(C)C)cc1	i	-1.5
Cc1c(C(=O)NCCSCc2cccc(C(F)(F)F)c2)cnn1-c1ccc(F)cc1	i	-0.11
COc1ccc2cc3cc(C(=O)N4CCCCC4C)oc3nc2c1 (stereo not given)	i	-0.15
CCOC(=O)CC1(NC(=O)c2cc(COc3ccc(F)c(F)c3)on2)CCCCC1	i	-0.83
CC(NC(=O)CCNC(=O)c1ccccc1Cl)C1CC2CCC1C2 (stereo not given)	i	-0.43
O=C(c1cnccn1)N1CCc2ccccc21	i	-0.68
CC(C)C[C@H](NC(=O)N1CCn2c1nc1ccccc12)C(=O)NCc1ccccc1	-6.7*	0.22*
O=C(NCCSCc1c(F)cccc1Cl)c1ccco1	i	0.82
COc1ccc(C2C(C(=O)/C=C/c3ccco3)=C(O)C(=O)N2CCN2CCOCC2)cc1 (stereo not given)	i	-0.12
O=[N+]([O-])c1cc(C(F)(F)F)ccc1Sc1nccn1Cc1ccccc1	i	-1.5
O=C(Cc1cn2ccsc2n1)NCc1ccccc1	i	-0.98
COc1cccc(C2CC(c3cccs3)=NN2C(=O)CCC(=O)O)c1OC (stereo not given)	i	0.05
Cc1ccc(/C=C/C(=O)NCc2cccs2)o1	i	-3.7
O=C(C=C1NCCN1)c1ccccc1	i	-1.1
Cc1ccc(S(=O)(=O)Nc2cccc3cccnc23)cc1	i	0.09
CCOC(=O)C1CCN(Cc2cnc(Oc3ccc(N)cc3)s2)CC1	i	-0.77
c1ccc(Cc2noc(CN3CCN(Cc4ccc5c(c4)OCO5)CC3)n2)cc1	i	1.1
O=C(c1ccc(F)c(S(=O)(=O)N2CCOCC2)c1)N(CCc1ccccc1)Cc1ccccc1	i	-0.3
Cc1cccc(N2C(=O)CS/C2=N\NC(=O)c2ccc(Cl)cc2)c1C	i	0.11
Cc1ccc(-c2cc(C(=O)Nc3cc(C)on3)c3ccccc3n2)c(C)c1	i	0.56
CC(C)CN(C#N)c1nc(N2CCOCC2)nc(N2CCOCC2)n1	i	-0.16
COc1cc(NS(=O)(=O)c2ccc(NC(=O)c3ccc(F)cc3)cc2)ncn1	i	1.4
O=C(NCCc1ccc(F)cc1)c1n[nH]c2ccccc12	i	-1.2
O=C(COc1cccc(Cl)c1)Nc1ccc(N2CCOCC2)cc1	i	0.08
C=CCN1C(=O)c2ccccc2NC1c1cc(Br)cs1 (stereo not given)	i	-1.1
Cc1cccn2c(=O)c3cc(C(=O)NCCC4=CCCCC4)n(C)c3nc12	i	-0.24
CC(C)Oc1ccc(S(=O)(=O)N2CCCCC2)cc1NC(=O)CN1C(=O)NC2(CCCC2)C1=O	i	0.27
Cc1cc(NC(=O)c2ccccc2)c(Cl)cc1N	i	1.2

Complete entries, quoted from the list:
Listed for `Cc1cc(NC(=O)c2ccccc2)c(Cl)cc1N` : KCNQ2 inh: i; KCNQ2 inh baseline: 1.2
Listed for `CC(C)CN(C#N)c1nc(N2CCOCC2)nc(N2CCOCC2)n1` : KCNQ2 inh: i; KCNQ2 inh baseline: -0.16

Arranged by molar mass (rising): some entries from above.
SMILES	KCNQ2 inh	KCNQ2 inh baseline
O=C(COc1cccc(Cl)c1)Nc1ccc(N2CCOCC2)cc1	i	0.08
Cc1ccc(-c2cc(C(=O)Nc3cc(C)on3)c3ccccc3n2)c(C)c1	i	0.56
Cc1cccn2c(=O)c3cc(C(=O)NCCC4=CCCCC4)n(C)c3nc12	i	-0.24
Cc1cccc(N2C(=O)CS/C2=N\NC(=O)c2ccc(Cl)cc2)c1C	i	0.11
COc1cc(NS(=O)(=O)c2ccc(NC(=O)c3ccc(F)cc3)cc2)ncn1	i	1.4
CC(C)Oc1ccc(S(=O)(=O)N2CCCCC2)cc1NC(=O)CN1C(=O)NC2(CCCC2)C1=O	i	0.27

Additional compounds.
SMILES	KCNQ2 inh	KCNQ2 inh baseline
COC(=O)c1cc(NC(=O)c2cccc(C(F)(F)F)c2)c(=O)oc1C	i	-1.6
CCOC(=O)N1CCN(c2ccc(S(=O)(=O)N(Cc3ccccc3)Cc3ccccc3)cn2)CC1	i	-0.18
COc1ccc([N+](=O)[O-])cc1-n1cccc1	i	1.2
O=c1c2ccccc2[nH]c(=S)n1CCCn1ccnc1	i	6.1
Cc1cc(F)ccc1S(=O)(=O)N1CCCOC1CNC(=O)C(=O)NCCC1=CCCCC1 (stereo not given)	i	1.7
COc1ccc2c(c1OC)C(=O)N1c3ccccc3C(=O)N(c3ccc(F)cc3)C21 (stereo not given)	i	0.27
Cn1c(=O)c2c(nc(Oc3cccc(Br)c3)n2C)n(C)c1=O	i	1.3
CN=C1SC(CC(=O)Nc2ccc(C(=O)O)cc2)C(=O)N1C (stereo not given)	i	-0.72
CCOC(=O)C1C2C=CC3(CN(c4cccc(Cl)c4)C(=O)C13)O2 (stereo not given)	i	-0.43
Cc1cc(=O)oc2ccc(OCC(=O)N(Cc3ccc(F)cc3)Cc3ccco3)cc12	i	-0.95
Cc1ccc(C)c(CSc2nnc(-c3cccs3)n2Cc2ccco2)c1	i	-1.3
COc1cc(C(=O)Nc2ccc(O)cc2)ccc1OC(C)=O	i	-0.43
O=C(Nc1ccccc1Cl)c1ccc(-c2ccccn2)s1	i	1.1
COc1cc([N+](=O)[O-])ccc1NC(=O)C[n+]1cccc(C)c1	i	3
CNC(=O)CN(Cc1ccccc1)S(=O)(=O)c1ccc(Cl)cc1	i	0.54
Cc1cccc(/C=C(\c2nc3ccccc3[nH]2)S(=O)(=O)c2ccccc2)c1	i	0.09
OCCC1CN(Cc2cnc(-c3ccccc3)s2)CCN1CCc1ccccc1 (stereo not given)	i	-1.4
CCCCc1c(C)c(C#N)c2nc3ccccc3n2c1Cl	i	-1.1
Cc1cccc(NC(=O)c2ccccc2NC(=O)C2CCCCC2)c1C	i	-0.62
COc1ccc(N(C(=O)c2ccco2)C(C(=O)NC2CCCC2)c2cccs2)cc1OC (stereo not given)	i	-0.02
COc1nc2ccccc2nc1N1CCN(c2ccc(F)cc2)CC1	i	-0.12
COc1cccc(C2c3[nH]c4ccccc4c3CCN2Cc2ncc[nH]2)c1 (stereo not given)	i	-0.02
O=C(NCc1ccccn1)Nc1cccc(F)c1	i	0.76
O=P(c1ccccc1)(c1ccccc1)C(O)c1ccco1 (stereo not given)	i	-1.1
COc1cc(C(=O)Nc2ccc3c(c2)N(C(=O)CN2CCN(C)CC2)c2ccccc2CC3)cc(OC)c1OC	i	1.5
Cc1[nH]c2c(C)cccc2c1CCNC(=O)C1CCCCC1C(=O)OCC(F)(F)F (stereo not given)	i	-2.5
CC(CNC(=O)c1ccccc1Cl)NC(=O)c1ccccc1Cl (stereo not given)	i	-0.32
COC(=O)C(Cc1ccccc1)NC(=O)C(CC(C)C)NC(=O)OC(C)(C)C (stereo not given)	i	-0.65
CCCn1cc(SCC(=O)NCC2CCCO2)c2ccccc21 (stereo not given)	i	-0.06
Cc1ccccc1C(=O)NCC(=O)NNC(=S)NC(=O)c1ccccc1	i	0.39
Cc1ccc(Nc2cc(C(=O)NCCCN3CCOCC3)c3ccccc3n2)c(C)c1	i	3.9
COc1ccc(/C(=C/Nc2cccc(Br)c2)C(C)=O)cc1OC	i	-0.38
CCOC(=O)N1CCN(CC(=O)n2c(C)c(C)c3ccccc32)CC1	i	0.4
CC(=O)Nc1ccc(C(=O)OCC(=O)Nc2ccccc2F)cc1	i	1.5
O=C(Cc1ccccc1)Nc1ccc(NC(=O)C2CCCCC2)nc1	i	0.01
COc1cccc(-c2nn(-c3ccccc3)cc2/C=C(\C#N)C(=O)NCCCn2ccnc2)c1	i	0.71
CC(C)C[C@@]12C(=O)N(c3cccc(Br)c3)C(=O)N1[C@H](c1ccc(Cl)cc1)[C@@H]1C(=O)N(C3CCCCC3)C(=O)[C@@H]12	i	1.3
COc1ccc(-c2nnc(SCc3ccccc3F)o2)cc1	i	0.05
C=CCN(C(=O)CCC(=O)Nc1cc(C)on1)C(C(=O)NC1CCCC1)c1ccc(CC)cc1 (stereo not given)	i	-0.86
COc1ccccc1NC(C#N)c1ccccc1OCc1ccccc1 (stereo not given)	i	-0.16
N#Cc1nc(-c2ccc(OCc3ccccc3)cc2)oc1N1CCC(C(N)=O)CC1	i	1.9
COc1ccc(Cc2nnc(NC(=O)Nc3ccccc3F)s2)cc1OC	i	0.28
Cc1cccc(N2CCN(CC(=O)NCc3ccc(Cl)cc3)CC2)c1C	i	0.26
CN(C)S(=O)(=O)c1cccc(NC(=O)CN(CCO)CC(=O)Nc2cccc(S(=O)(=O)N(C)C)c2)c1	i	-0.03
c1ccc(OCc2nnnn2-c2ccccc2)cc1	i	0.47
CCOc1cc(C2C(C(=O)c3ccco3)=C(O)C(=O)N2CC2CCCO2)ccc1O (stereo not given)	i	-1.1
O=C(Nc1ccccc1C(F)(F)F)N1CCN(c2ccccn2)CC1	i	0.68
Cc1cc(C)n(-c2cccc(Cl)c2C#N)n1	i	-0.45
CCOC(=O)c1cnc(SC2CC(=O)N(c3ccc(C)cc3)C2=O)nc1N (stereo not given)	i	2.2
O=C1NC2(CCc3ccccc32)C(=O)N1CCOc1ccc(Cl)cc1 (stereo not given)	i	-1.4
Remaining list, next part.
SMILES	KCNQ2 inh	KCNQ2 inh baseline
Cc1nc2c(-c3ccccc3)cnn2c(N)c1-c1ccccc1	i	-0.63
CCN(CC(=O)Nc1ccccc1C(=O)Nc1ccccc1)Cc1nc2ccccc2c(=O)[nH]1	i	-0.68
COc1ccc(CN(C(=O)c2snc(C(N)=O)c2N)C(C(=O)NC2CCCC2)c2ccc(OC)cc2)cc1 (stereo not given)	i	0.05
O=C(CSc1nncs1)Nc1ccc2[nH]c(=O)[nH]c2c1	i	0.84
COc1ccc(-c2c3c(=O)n(C)c(=O)n(C)c3cn2-c2ccccc2)cc1	i	-0.52
C(#Cc1ccccc1)CN1CCOCC1	i	-0.87
CCOC(=O)C1=C(CC)Nc2ccccc2N=C1NC(=O)c1oc2ccccc2c1C	i	-1.2
COc1ccccc1N1CCN(CC(=O)Nc2ccc3c(c2)OCCO3)CC1	i	0.39
CCOCCCNC(=O)C(NC(=O)CNC(=O)c1ccccc1)c1ccc(C)cc1 (stereo not given)	i	0.55
O=C(NC1CC1)C1CC(=O)N(c2cccc(Cl)c2)C1 (stereo not given)	i	1.5
CCc1ccc(C(=O)NC(CCSC)C(=O)OC)cc1 (stereo not given)	i	2.1
